Compound activity (PubChem)
2A firefly: Primary qHTS Assay for Foot and Mouth Disease Virus Antivirals against NCGC Sytravon and CBC Compound Libraries: Firefly Luciferase Signal | HEK cells with a luciferase reporter of 2A StopGo recoding | Potency, µM (doses to about 57.5 µM), for the others: at the top dose signal change, negative = less light | 120,000 compounds, 0.23% hits | AID 1745856, 2022; active = well fitted falling curve with a large enough effect; inconclusive = small, poorly fitted or top-dose-only effect; inactive = no such curve, though single readings can be large or run the other way; further: nearly all actives have a fitted effect of over 60% in size; overnight with compound
2A Renilla: Primary qHTS Assay for Foot and Mouth Disease Virus Antivirals against NCGC Sytravon and CBC Compound Libraries: Renilla Luciferase Signal; HEK cells with a luciferase reporter of 2A StopGo recoding; Potency, µM (top dose mostly 57.5 µM), without a hit: top-dose signal change, negative = less light; 120,000 compounds, 0.32% hits; active means well fitted falling curve with a large enough effect; inconclusive means small, poorly fitted or top-dose-only effect; inactive means no such curve, though single readings can be large or run the other way; further: nearly all actives have a fitted effect of over 55% in size; overnight with compound
* marks the source's active call; other numbers are inactive results; ? = inconclusive; [ ] = remark or other dose. On the % scale 0 is the no-effect control and ±100 the full control effect; potency means the concentration at half of the fitted maximal effect. Some of the compounds tested, so the mix of outcomes need not match the whole.

SMILES | 2A firefly | 2A Renilla
CCOc1ccc(/C=C2/Cc3c(O)cccc3C2=O)cc1 | 97.4%[activator] | -13.3%
COc1ccc(OC)c(S(=O)(=O)N2CCN(C(=O)c3cc4c(s3)CCCCC4)CC2)c1 | 35.9%[activator] | 28.4%
CNc1c(NS(=O)(=O)c2ccc(C)c(C)c2)c(=O)oc2ccccc12 | 0.0% | 1.3%
CCC1(CC)Cc2ccccc2-c2nc(CN(C)C)[nH]c(=O)c21 | 2.6% | -4.7%
CC(C)(C)c1ccc(CCC2OCC(C[N+]3(C)CCCCC3)O2)cc1 (stereo not given) | -5.5% | -21.9%
O=c1c2cnc(N3CCc4ccccc4C3)nc2ccn1-c1ccccc1 | 25.1µM* | ?
O=C(O)C1CCC(c2ccc(I)cc2)CC1 (stereo not given) | 11.3% | 27.8%
CC1Cc2nc(SCC(=O)N3CCCC3)n(-c3ccccc3)c(=O)c2S1 (stereo not given) | -10.6% | -2.5%
Cc1ccc(C)c(NC(=O)C(C)SC(c2ccc(F)cc2)c2ccc(F)cc2)c1 (stereo not given) | -1.7% | 11.7%
COCC(=O)n1nc(NCc2cccc(Cl)c2)nc1NCc1cccc(Cl)c1 | 4.4% | 2.3%
O=C(O)/C=C/C(=O)NCCN1CCOCC1 | 0.0% | 28.6%
COc1ccccc1N1CCN(C(=O)C2CCN(S(=O)(=O)c3cnc[nH]3)CC2)CC1 | -6.2% | -1.3%
Cc1ccc2nc(NCc3ccccc3)c3nncn3c2c1 | 4.1% | -1.4%
CCCN(Cc1cccs1)C(=O)Nc1cc(C)cc(C)c1 | 54.4%[activator] | -1.8%
Cc1ccc(CS(=O)Cc2ccc(C(=O)NCc3ccccc3Cl)o2)cc1 (stereo not given) | -10.9% | 23.1%
NC1=C(S(=O)(=O)c2ccccc2)C(c2ccccc2)C(S(=O)(=O)c2ccccc2)=c2s/c(=C/c3ccccc3)c(=O)n21 (stereo not given) | -0.3% | 56.1%[activator]
COC(=O)c1ccc(NC(=O)Cn2cccc2-c2nc(-c3ccc(C)cc3)no2)cc1 | 56.2%[activator] | -2.0%
COc1cc(OC)cc(C(=O)Nc2ccc(NS(=O)(=O)c3ccc4c(c3)OCCCO4)cc2)c1 | -7.5% | 104.9%[activator]
O=c1oc2ccc(Cl)cc2cc1-c1csc(Nc2c(F)cccc2F)n1 | 5.7% | 5.0%
O=C1COc2ccc(-c3cc(-c4ccccc4)c4c(n3)-c3ccccc3OC4)cc2N1 | -13.2% | -8.7%
CCc1ccc(C(=O)C(C)OC(=O)c2ccc(OCC(N)=O)cc2)cc1 (stereo not given) | 10.2% | 19.9%
CC(=O)N1CCN(C(=O)c2cc(-c3cccs3)nc3ccccc23)CC1 | 29.0% | 21.0%
O=C(c1cc2cc(Br)ccc2o1)c1ccccc1F | 158.9%[activator] | 51.4%[activator]
CN1CCN(CCNC(=O)CC2CCN(C(=O)c3cc4ccccc4[nH]3)CC2)CC1 | -14.1% | -12.2%
COc1ccc(-c2nc(C)c(CCNS(=O)(=O)c3cc(C)c(C)cc3C)s2)cc1 | 17.0% | 422.2%[activator]
Remaining list, next part
SMILES | 2A firefly | 2A Renilla
CC(C)C(NC(=O)Nc1ccc(F)cc1)C(=O)N(C)C (stereo not given) | 18.2% | 45.5%[activator]
Cc1cccc(C(=O)NC(Nc2ccccc2C)C(Cl)(Cl)Cl)c1 (stereo not given) | 24.9% | 17.1%
CC(=O)N1CCN(C(=O)Cn2ccc3c(Cl)cccc32)CC1 | -0.3% | -6.9%
CCOC(=O)c1[nH]c2ccccc2c1NC(=O)CCN1CCC(C(N)=O)CC1 | 2.5% | -9.7%
CCCc1nn2c(=O)cc(COC(=O)c3ccccc3NC(=O)COc3ccccc3F)nc2s1 | 4.8% | 3.4%
O=C(COc1cccc(F)c1)Nc1ccc(-n2cnnn2)cc1 | 10.8% | -2.0%
CCc1ccc(-c2noc(CSc3ccc(S(=O)(=O)N4CCCCCC4)cn3)n2)cc1 | 9.9% | -7.6%
O=C(C1=C(c2ccccc2)SCCO1)N(Cc1ccccc1)C1CCS(=O)(=O)C1 (stereo not given) | -2.7% | 1.6%
O=C(NCC1CC1)c1cn(-c2ccccc2)nc1-c1cccnc1 | 9.4% | 29.6%
CN(CCO)c1nc(-c2ccco2)c2c(c1C#N)CCCC2 | -20.0% | -16.0%
O=C(CCn1nc(-c2ccccc2)c2ccccc2c1=O)Nc1cccc(Cl)c1 | -1.1% | 145.6%[activator]
CC(C)(C)NC(=O)COC(=O)c1cc(-c2ccccc2)nc2c1cnn2Cc1cccc(F)c1 | -4.9% | -13.9%
Clc1ccccc1OCCSc1nnc(-c2cccs2)o1 | 34.9%[activator] | -2.9%
O=C1CC(C(F)(F)F)N(C(=O)Cn2cnc3ccc(Br)cc3c2=O)c2ccccc2N1 (stereo not given) | -21.0% | -20.3%
CCNC(=O)CC1C(=O)N(c2ccc(C)cc2)C(=O)N1CCC(C)C (stereo not given) | 18.2% | 26.8%
CC(C)n1nc(C(=O)Nc2cccc(S(=O)(=O)N3CCCCC3)c2)c2ccccc2c1=O | -2.4% | 17.1%
CCc1ccc(NC(=O)Cn2c(=O)n(Cc3ccco3)c(=O)c3cccnc32)cc1 | -1.9% | 7.5%
COc1ccc(S(=O)(=O)NCC(c2ccc(N(C)C)cc2)N2CCc3ccccc32)cc1 (stereo not given) | 88.7%[activator] | 36.5%[activator]
Cn1c(=O)n(C)c2cc(N3CCOCC3)c(NS(=O)(=O)c3ccc(Cl)cc3)cc21 | 22.2% | 38.9%[activator]
Oc1ccc(Cl)cc1C=NCc1ccc(C(F)(F)F)cc1 | 1.1% | 5.2%
O=C(Cc1noc(C(=O)NCc2ccncc2)n1)Nc1cccc2ncccc12 | 5.8% | -9.9%
COc1ccc(NC(=O)c2nc(-c3ccc(C)cc3)n3c2CCCCC3)cc1 | -7.4% | -12.4%
FC(F)(F)c1cccc(NC(=S)NCCc2ccncc2)c1 | 9.4% | 135.9%[activator]
Clc1ccc(CSc2nc3ncccc3[nH]2)c(Cl)c1 | 131.5%[activator] | -4.3%
Cc1nn(-c2nc3c(c(=O)n(CC(=O)C(C)(C)C)c(=O)n3C)n2CC(C)C)c(C)c1C | ? | ?

Molecules from the list above with an aryl thioether with sulfur outside any ring (four):
SMILES | 2A firefly | 2A Renilla
CC1Cc2nc(SCC(=O)N3CCCC3)n(-c3ccccc3)c(=O)c2S1 (stereo not given) | -10.6% | -2.5%
CCc1ccc(-c2noc(CSc3ccc(S(=O)(=O)N4CCCCCC4)cn3)n2)cc1 | 9.9% | -7.6%
Clc1ccccc1OCCSc1nnc(-c2cccs2)o1 | 34.9%[activator] | -2.9%
Clc1ccc(CSc2nc3ncccc3[nH]2)c(Cl)c1 | 131.5%[activator] | -4.3%

Continuation.
SMILES | 2A firefly | 2A Renilla
Cc1cccc(C(=O)Nc2cccc(-c3nc4ccccc4s3)c2C)c1 | 0.0% | 16.1%
Cc1ccc2nc(C)cc(C(=O)OCC(=O)c3ccc(C)c([N+](=O)[O-])c3)c2c1 | -6.8% | -7.9%
Cc1ccc(-n2c3c(c(=O)[nH]c2=O)CN(Cc2ccco2)CN3)cc1C | -8.9% | -8.8%
CC(C)N(Cc1ccccc1)C(=O)CN1C(=O)CSc2ccc(S(=O)(=O)N3CCCC3)cc21 | -12.3% | -10.4%
O=C1c2ccccc2C(Nc2ccc3c(c2)OCCO3)N1Cc1ccccc1Cl (stereo not given) | 19.6% | 146.7%[activator]
CC(C)(C)NCC(O)c1ccc(O)c(CO)c1 (stereo not given) | -14.8% | -10.5%
COC(=O)c1sc(S(=O)(=O)Nc2ccc(F)c(F)c2)c(C(=O)OC)c1C | 7.0% | ?
CCCCCCCCCCS(=O)(=O)CCCCCl | 0.0% | 5.4%
Oc1ccc(NCc2ccc(OCc3ccccc3)cc2)cc1 | 114.2%[activator] | -12.4%
CC1CC1C(=O)NCC1CCCC(CNC(=O)C2CC2C)C1 (stereo not given) | -0.5% | 2.1%
Cc1ccc(NC(=O)N(Cc2cn(C)c3ccccc23)C2CCCCC2)cc1C | 111.4%[activator] | -3.5%
COc1ccc(CN2C(=O)C(O)(CC(=O)c3ccccc3OC)c3ccccc32)cc1OC (stereo not given) | -4.6% | 20.9%
Cc1cccc(CS(=O)(=O)c2ncc(Cl)c(C(=O)Nc3nc4ccc(F)cc4s3)n2)c1 | -16.0% | -22.2%
Cc1ccccc1CNCc1c(C(=O)O)c(C)n(Cc2ccc(F)cc2Cl)c1C | -22.9% | 10.8%
CCCN(C(=O)c1cc2c(s1)-c1ccccc1SC2)c1ccccc1F | 0.0% | 13.1%
COC(=O)c1cc(-c2nc3ccccc3[nH]2)c(-c2cccc(Cl)c2)nc1C | -4.6% | -6.6%
O=C(Nc1ccc(F)cc1)C(Sc1cccc[n+]1[O-])c1ccccc1 (stereo not given) | 10.2% | 89.5%[activator]
CCOC(=O)c1c(S(=O)(=O)NCC(=O)Nc2ccc(C)c(Cl)c2)c(C)n(C)c1C | -15.7% | 200.3%[activator]
NS(=O)(=O)c1ccc(NSc2ccccc2[N+](=O)[O-])cc1 | -0.1% | 15.2%
Cc1c(Cl)cccc1NC(=O)Cn1nc(C)c2sc3ccccc3c2c1=O | -14.9% | -14.9%
CNCc1ccsc1 | 25.8% | 4.8%
CCc1nn(CC(=O)N2CCCCC2)c(=O)c2cc3sc(C)cc3n12 | 20.8% | -10.7%
Cc1ccc(NC(=O)C2CCCN2S(=O)(=O)c2ccc3c(c2)C(C)(C)C(=O)N3C)cc1 (stereo not given) | -35.4% | -13.2%
Cc1ccc2c(c1)c(-c1ccccc1)c(-c1ccccc1)n2CCC#N | 1.9% | 15.7%
O=C(NCC(O)c1ccccc1)c1nc(-c2cccc3[nH]ccc23)no1 (stereo not given) | 87.3%[activator] | 108.2%[activator]
(next part)
SMILES | 2A firefly | 2A Renilla
CCOC(=O)N1CCN(C(=O)C[C@H]2C[C@@]3(C(=O)OC)C(=C[C@H](COCc4ccccc4)O[C@@H]3C)N(CCc3ccc(OC)c(OC)c3)C2=O)CC1 | -4.3% | 6.7%
O=C(NCCc1c[nH]c2ccccc12)c1cnc2ccccc2n1 | 179.8%[activator] | 0.8%
Cc1ccc(CNC(=O)c2c(Nc3c(C)cccc3C)sc(C(=O)c3ccccc3)c2N)cc1 | -11.6% | -12.7%
Cc1ccc(-c2nonc2NC(=O)c2ccco2)cc1C | 5.2% | 26.0%
CCOc1ccc(NS(=O)(=O)c2ccc3[nH]cc(C(=O)N(C)C4CCCCC4)c(=O)c3c2)cc1 | -3.0% | 9.6%
CCc1nnc(SCC(=O)Nc2ccc(Cl)cc2F)c2cc3occc3n12 | 21.9% | 9.4%
C=CCNC(=O)NC(=O)CN(C)CCOc1cccc(C)c1 | 7.7% | 14.6%
CCOc1ccccc1NC(=O)C1CCCN(S(=O)(=O)c2cn(C)cn2)C1 (stereo not given) | -14.6% | -6.3%
COc1ccc(-c2nc(NCCN3CCCCC3C)c3ccccc3n2)cc1 (stereo not given) | 21.8% | 6.7%
Cc1ccc(C2CC(=O)n3nc(-c4ccc(F)cc4)nc3S2)cc1 (stereo not given) | -7.5% | -6.9%
CCOC(=O)c1sc2ccccc2c1S(=O)(=O)Nc1ccc(OC)c(Cl)c1 | -17.4% | 201.1%[activator]
Cc1cc(C(=O)OCC(=O)Nc2ccc(F)c(F)c2F)c2ccccc2n1 | -12.7% | -13.9%
Cc1oc(-c2cccc(Cl)c2)nc1CN1CCC(C(=O)NCCCN2CCN(c3cccc(Cl)c3)CC2)CC1 | ? | ?
COc1ccc(CCN2C(=O)CN(C3CCCCCC3)C(=O)C2c2ccccc2F)cc1OC (stereo not given) | -4.9% | 1.5%
O=C(C1CCC1)N1CCc2cc(S(=O)(=O)N3CCN(c4ccccc4)CC3)ccc21 | -10.2% | 9.0%
Cc1cccc(NC(=O)Cn2cc(C(=O)c3ccccc3)c3ccccc32)c1 | -12.0% | -12.9%
O=C(Nc1oc2ccccc2c(=O)c1-c1ccc(Cl)cc1)c1ccc([N+](=O)[O-])cc1 | ? | ?
N#C/C(=C/c1ccc(OCc2ccccc2Cl)cc1)c1nc2ccccc2s1 | 0.0% | -15.4%
COc1ccc(C)cc1NC(=O)N1CC(C)Sc2ccccc21 (stereo not given) | -17.0% | -12.5%
Cc1oc(-c2ccc(Cl)cc2)nc1CN1C(=O)CN=C(c2ccccc2)c2ccccc21 | -28.0% | -9.6%
Nc1nccnc1C(=O)NCc1ccco1 | 13.1% | 0.5%
CN(CC(=O)Nc1ccccc1Cl)CC(=O)N(CCC#N)c1ccccc1 | 20.5% | 13.5%
COc1ccc(-c2cc3nc(C)c(CCC(=O)NCCc4ccc(Cl)cc4)c(C)n3n2)c(OC)c1 | -18.4% | 2.6%
CC(=O)c1cn(CC(=O)NC2CCCCC2)c2ccccc12 | 6.2% | 0.9%
CCCOC(=O)c1ccc(NC(=O)NC(c2ccccc2)c2nccn2C)cc1 (stereo not given) | 32.0%[activator] | 5.7%
Cc1cc(C2CCCN2Cc2coc(-c3ccccc3)n2)on1 (stereo not given) | 38.8%[activator] | -5.3%
CCCCn1nc(C(=O)N(CC)CC(=O)Nc2c(F)cccc2F)c2ccccc2c1=O | 15.2% | 42.1%[activator]
CCN(c1cccc(C)c1)S(=O)(=O)c1ccc(N2CCCCS2(=O)=O)cc1 | 36.5%[activator] | 60.2%[activator]
CCc1ccc(NC(=O)Nc2ccc3sc(NS(=O)(=O)c4ccccc4)nc3c2)cc1 | 22.2% | 15.9%

Compounds above with bromine (2):
SMILES | 2A firefly | 2A Renilla
O=C(c1cc2cc(Br)ccc2o1)c1ccccc1F | 158.9%[activator] | 51.4%[activator]
O=C1CC(C(F)(F)F)N(C(=O)Cn2cnc3ccc(Br)cc3c2=O)c2ccccc2N1 (stereo not given) | -21.0% | -20.3%
